RGS16-Gao: modulators of RGS16 binding to Galphao, primary screen, biochemical, human proteins, multiplexed bead flow cytometry | Regulator of G-protein signaling 16 (Homo sapiens) + Guanine nucleotide-binding protein … | bead-based flow cytometry RGS16-Galphao binding, fluorescence; actives lie on both sides | binding response (% of control), % at 10 µM | 220,000 compounds, 0.38% hits | AID 1441, 2008;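 active means below 25% or above 175%, edge rows of some plates excepted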;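 further: Galphao activated by GDP with aluminum fluoride before binding; 100% = wells without compound and 0% = beads without RGS; some results beyond the cut were filed as inactive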
PKD1 inh: inhibitors of human PKD1 kinase, biochemical, fluorescence polarization | AID 797, 2007 | inhibition, %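 (about 10 µM by stock and volumes)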 | Serine/threonine-protein kinase D1 (Homo sapiens), Q15139 | PKD1 kinase fluorescence polarization assay | 200,000 compounds, 0.056% hits;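 active means inhibition of 50% or more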;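 further: controls were vehicle for no effect and a reference inhibitor for full effect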
Target sequence (Q15139 whole entry, looked up): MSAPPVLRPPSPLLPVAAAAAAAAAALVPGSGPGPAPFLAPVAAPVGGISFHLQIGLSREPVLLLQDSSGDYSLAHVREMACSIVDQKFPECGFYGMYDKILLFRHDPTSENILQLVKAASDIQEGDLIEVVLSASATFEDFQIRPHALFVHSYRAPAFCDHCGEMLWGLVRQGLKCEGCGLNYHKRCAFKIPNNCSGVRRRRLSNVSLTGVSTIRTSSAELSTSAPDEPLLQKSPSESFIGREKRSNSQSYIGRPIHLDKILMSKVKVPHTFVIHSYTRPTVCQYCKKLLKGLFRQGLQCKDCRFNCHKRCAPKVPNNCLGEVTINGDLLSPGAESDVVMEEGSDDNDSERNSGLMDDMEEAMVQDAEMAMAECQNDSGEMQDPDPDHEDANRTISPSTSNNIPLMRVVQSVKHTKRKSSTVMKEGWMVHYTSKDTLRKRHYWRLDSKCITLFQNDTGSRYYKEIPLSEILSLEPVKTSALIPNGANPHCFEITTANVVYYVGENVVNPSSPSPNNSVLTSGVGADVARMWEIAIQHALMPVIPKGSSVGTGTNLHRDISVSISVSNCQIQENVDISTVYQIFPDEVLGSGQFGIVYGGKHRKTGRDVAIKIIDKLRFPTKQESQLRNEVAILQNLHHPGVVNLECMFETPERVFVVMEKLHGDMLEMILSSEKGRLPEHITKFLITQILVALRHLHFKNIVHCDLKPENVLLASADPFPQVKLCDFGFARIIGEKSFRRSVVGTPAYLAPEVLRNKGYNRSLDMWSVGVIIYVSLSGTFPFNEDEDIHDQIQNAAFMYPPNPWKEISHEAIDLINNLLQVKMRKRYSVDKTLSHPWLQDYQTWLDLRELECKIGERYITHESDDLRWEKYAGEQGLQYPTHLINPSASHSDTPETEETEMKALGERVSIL
GALR2 agonist: GALR2 receptor agonists, primary screen, cell-based; AID 803, 2007; activation, %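 (tested at 5 µM)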; Galanin receptor type 2 (Homo sapiens), O43603; 140,000 compounds, 0.48% hits; GALR2-expressing cells, agonist activation read-out;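 active means above mean plus 3 SD of all compounds, about 5% in these data, not always enough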;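 further: 0% = vehicle buffer wells and 100% = reference agonist at full effect; tested in CHO reporter cells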
HSV augment: enhancers of HSV replication in host cells, fold increase, host cell viability; HSV replication augmentation in cells; maximum fold increase; 220,000 compounds, 0.005% hits;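 active means peak rise of 1.5-fold or more in the series; inconclusive means self-fluorescent or not available for retest; tested in PC3 cells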;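 further: first round at 10 µM; read as green reporter fluorescence; hits show the peak of a series up to 25 µM; 1 = signal of infected wells without compound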
INS promoter inh: inhibitors of insulin promoter-driven GFP, primary screen, imaging, TRM-6 cells (human fetal islet line), eGFP reporter, cell count | reporter expression induced with tamoxifen | AID 1273, 2008 | inhibition, % at 2 µM | 130,000 compounds, 0.9% hits;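 active means inhibition above the mean plus 3 SD, with well images judged a real hit on visual review, cut at about 60% in these data, passing the limit was not always enough; inconclusive means inhibition over the cutoff but images rejected on review; inactive means inhibition not above the cutoff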
INS promoter inh cell count: further read-out of INS promoter inh, marked with its call; normalized cell count, %; measured here: cell count, toxicity; reference of the scale not given here;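 cells exposed to compound for 48 h; stained nuclei by imaging scaled within each plate; lower means fewer cells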
HSV augment primary fold: further read-out of HSV augment, marked with its call; fold increase; compound at 10 µM; measured here: primary screen fold increase 10 uM; tested in PC3 cells;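 GFP signal in the first replicate; 1 = infected wells without compound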
* = called active by the depositor; i = inactive; ? = inconclusive; · = no result given. Not a hit list. Share with any hit: about 1.3%.

The line under a structure holds: RGS16-Gao	PKD1 inh	GALR2 agonist	HSV augment	HSV augment primary fold	INS promoter inh	INS promoter inh cell count
CC1(C)Cc2c(c(-c3ccccc3)[nH]c(=O)c2C#N)CS1
    90	1	-1.4	i	1	-8	103
CCOC(=O)N1CCN(S(=O)(=O)c2ccc(C)c([N+](=O)[O-])c2)CC1
    76	1	·	i	1	·	·
O=C(O)c1ccccc1C(=O)Nc1ccc(-n2ccc(C(F)(F)F)n2)cc1
    101	·	·	i	1.4	·	·
Cc1nc2ccccc2nc1CN1CCC(CO)(CC2CCCCO2)CC1 (configuration not stated)
    98	-5	·	i	1.1	·	·
CC[n+]1ccc(C)c2cc(SC(F)(F)F)ccc21
    101	-2	·	i	0.95	36	182
Cc1cc2ccccn2c1C(=O)c1cccc([N+](=O)[O-])c1
    109	-7	·	i	0.94	-100	193
C=CCC1C=CCC(CC=C)N1C(=O)c1ccccc1[N+](=O)[O-] (configuration not stated)
    94	7	-1.4	i	1	-22	108
COc1ccc(NS(=O)(=O)c2ccc(N3CCCC3=O)cc2)cn1
    117	-7	·	i	0.78	7	48
CC1(C)C(CO)=CC(=O)C2=C1SCC(=O)N2
    110	3	-2.4	i	0.64	-200	72
Cc1c(NC(=O)C(C)Oc2ncnc3ccccc23)c(=O)n(-c2ccccc2)n1C (configuration not stated)
    103	-2	-0.5	i	0.92	41	142
CC(C)N(Cc1nc(-c2ccccc2)no1)C(=O)CCCN1C(=O)c2ccccc2C1=O
    93	2	-1.8	i	0.8	-85	96
Cc1ccc(OCC(=O)Nc2ccc(N3CCOCC3)cc2)c([N+](=O)[O-])n1
    102	-3	·	i	0.92	10	126
CCCCOCC(O)CCc1n[nH]c(=S)n1-c1ccccc1 (configuration not stated)
    109	-2	·	i	0.93	·	·
COc1ccc([C@@H]2C[C@@H](c3ccccc3)Oc3cc(C)cc(C)c32)cc1
    97	·	·	i	0.86	·	·
C=CCn1c(COc2ccc(Cl)cc2)nnc1SCC(=O)N1CC(=O)Nc2ccccc21
    52	-8	-1.6	i	0.98	26	87
Cc1ccc2nc(SC(C)C(=O)N3CCCC3)[nH]c2c1 (configuration not stated)
    102	-5	-1.0	i	0.66	23	145
Cc1ccc(-c2nnn(CC(=O)N(c3ccccc3)C(C(=O)NC3CCCC3)c3ccco3)n2)o1 (configuration not stated)
    103	-2	-1.1	i	1	7	68
Cc1csc2ncc(C(=O)NCc3ccccc3Cl)c(=O)n12
    102	-4	-0.3	i	0.87	·	·
Cc1cccc2c1-c1sc(C(=O)N3CCc4ccccc4C3)cc1CO2
    97	-9	-0.4	·	·	-20	86
O=C(CCC(=O)OCC(F)(F)C(F)F)Nc1ccc(F)cc1F
    99	14	-0.6	i	0.8	27	159

Reformatted as comma-separated lines: two of the compounds above.
SMILES,RGS16-Gao,PKD1 inh,GALR2 agonist,HSV augment,HSV augment primary fold,INS promoter inh,INS promoter inh cell count
Cc1ccc2nc(SC(C)C(=O)N3CCCC3)[nH]c2c1 (configuration not stated),102,-5,-1.0,i,0.66,23,145
COc1ccc(NS(=O)(=O)c2ccc(N3CCCC3=O)cc2)cn1,117,-7,·,i,0.78,7,48

Returning to the listing; the 4 compounds before the break are reprinted first.
The line under a structure holds: RGS16-Gao	PKD1 inh	GALR2 agonist	HSV augment	HSV augment primary fold	INS promoter inh	INS promoter inh cell count
Cc1ccc(-c2nnn(CC(=O)N(c3ccccc3)C(C(=O)NC3CCCC3)c3ccco3)n2)o1 (configuration not stated)
    103	-2	-1.1	i	1	7	68
Cc1csc2ncc(C(=O)NCc3ccccc3Cl)c(=O)n12
    102	-4	-0.3	i	0.87	·	·
Cc1cccc2c1-c1sc(C(=O)N3CCc4ccccc4C3)cc1CO2
    97	-9	-0.4	·	·	-20	86
O=C(CCC(=O)OCC(F)(F)C(F)F)Nc1ccc(F)cc1F
    99	14	-0.6	i	0.8	27	159
COc1cccc(-n2nnc3c(=O)n(CC(=O)Nc4ccc(C)cc4)cnc32)c1
    97	-4	·	i	0.99	-116	125
COC(=O)c1ccc(NC(=S)NCCCN2CCCC2=O)cc1
    105	6	·	i	1.1	·	·
Cc1noc(C)c1COC(=O)[C@H](C)NS(=O)(=O)c1ccc(Cl)c(Cl)c1
    110	-1	14*	i	0.97	-4	98
N#CC(C#N)=Cc1cc2ccccc2nc1N1CCCCC1
    97	7	-0.1	i	1.1	59	103
O=C(CN1CCC(NC(=O)Cc2ccccc2)CC1)Nc1cccc2ccccc12
    102	-4	-2.7	i	0.92	·	·
O=C(Oc1cccnc1)c1ccc([N+](=O)[O-])cc1
    100	-6	-0.1	i	0.94	-17	132
COc1ccc2c(c1)nc(SCC(=O)c1cccs1)n2C
    99	0	-1.5	i	0.85	0	106
CCCOc1ccc2nc(C)c(CCC)c(SC(=N)N)c2c1
    96	·	·	i	1	·	·
CCOC(=O)CN(C(=O)c1ccccc1[N+](=O)[O-])C(C)(C)C
    106	·	·	i	1.1	·	·
Cc1ccccc1C(=O)NC1CCN(CC(=O)NCc2ccc(F)cc2)CC1
    96	6	·	i	0.96	·	·
CC(=O)N1CCc2cc(S(=O)(=O)NCCC(=O)NCCc3ccccc3)ccc21
    111	2	-0.5	i	0.98	·	·
COC(=O)c1ccccc1C(=O)N1CCCC(CCC(=O)NCc2ccc(F)c(F)c2)C1 (configuration not stated)
    107	-7	·	i	1	-44	87
CCN(CC(=O)Nc1ccc2c(c1)OCCO2)Cc1cc(=O)n2ccsc2n1
    100	-9	·	i	0.86	·	·
CCN(CC)C1CCN(C(=O)CCc2nnc(CCCCc3ccccc3)o2)C1 (configuration not stated)
    107	-1	·	i	0.98	-38	69
CCC(NS(=O)(=O)c1ccc(C)cc1)C(=O)N1CCN(c2ccccn2)CC1 (configuration not stated)
    100	10	-4.7	i	1.3	·	·
Cc1ccnc(NC(=O)c2ccc(Cl)c([N+](=O)[O-])c2)c1
    99	1	·	i	0.9	-12	108
Cc1ccc(/C=N/NC(=O)CSc2nc3ccccc3c(=O)n2-c2ccccc2C)s1
    99	-2	-1.4	i	0.86	13	118
CSC1=C(C#N)C(c2ccc(C)cc2)C2=C(CCCC2=O)N1 (configuration not stated)
    77	-11	-1.1	i	1.1	14	90
Cc1cccc(NC(=O)c2cc(NC(=O)C3CCCCC3C(=O)O)ccc2N2CCCCC2)c1 (configuration not stated)
    99	3	-0.3	i	1.1	·	·
COc1ccc(NC(=O)CSc2nnnn2C)cc1
    100	5	·	i	0.93	7	96
CNC(=O)c1ccsc1NC(=O)c1ccc(Cl)s1
    102	2	0.7	i	0.93	·	·
Cc1cc(O)c(/C=N/Nc2ccc(Cl)cc2)c(=O)o1
    102	-9	-2.2	i	0.97	·	·
Cc1[nH]c2ccccc2c1C(c1ccccn1)c1c(C)[nH]c2ccccc12
    113	-5	-1.9	i	1.1	·	·
CCCOC(=O)c1ccc(NC(=O)c2cc(=O)[nH]c3ccccc23)cc1
    105	·	·	i	0.88	·	·
O=C(O)Cc1cn(Cc2cccc(Cl)c2)c2ccccc12
    101	-5	·	·	·	21	141
c1ccc2c(CCNc3ncnc4nc[nH]c34)c[nH]c2c1
    103	18	0.4	i	0.77	-129	79
O=C(OCc1cc2ccccc2[nH]c1=O)c1ccncc1
    96	-1	-3.1	i	0.96	-19	105
COCCNC(=O)C12CC3CC(C1)CC(c1ccccc1)(C3)C2
    85	0	·	i	0.89	·	·
Cc1nnc(-c2cnn(C)c2N)n1Cc1ccc2c(c1)OCO2
    96	-1	·	i	1.1	0	136
Cc1cc(S(=O)(=O)NC2CCCCC2)ccc1OCC(=O)NCC1CCCO1 (configuration not stated)
    105	-1	·	i	1	·	·
S=c1[nH]nc([C@@H]2C[C@H]2c2ccccc2)n1-c1ccccc1
    93	1	0.3	i	0.98	-43	100
CCN(CC)S(=O)(=O)c1ccc(NC(=O)CCC2CCCCC2)cc1
    96	-9	-1.5	·	·	8	123
O=c1cc(NCc2ccco2)[nH]c(=O)n1-c1ccc(Br)cc1
    82	-10	-2.1	i	1	60	99
O=C(Nc1cccc(S(=O)(=O)N2CCCCC2)c1)c1ccc2c(c1)OCO2
    104	-10	-1.9	i	0.86	30	127
CC/C(=N\NC(=S)Nc1ccc(OC)cc1)c1ccc(OC(F)F)cc1
    98	1	-0.5	i	0.97	·	·
CCCCN(C)C1=CC2=CC(=C(C#N)C#N)CCC2CC1 (configuration not stated)
    167	-41	-0.2	?	·	-245	130
CCOc1ccc(NC(=S)NN2C(C)CCCC2C)cc1 (configuration not stated)
    115	0	-0.8	i	0.99	45	127
O=C(Nc1ccc2oc(=O)ccc2c1)c1ccc(-c2ccc(Cl)cc2)o1
    93	-8	-1.1	i	1	·	·
Cc1ccc(CSc2ncnc3c2cnn3Cc2ccccc2)cc1C
    100	0	-2.4	i	0.94	-24	131
COc1ccccc1-n1cnnc1SC1CCOC1=O (configuration not stated)
    121	-8	-1.2	i	0.91	·	·
O=C1NCCCC1C(=O)N/N=C/c1ccc(Cl)cc1 (configuration not stated)
    112	·	·	i	0.95	·	·
CCCOC(=O)/C(=C\c1ccc([N+](=O)[O-])o1)NC(=O)c1ccccc1
    101	-6	-2.1	i	0.97	-210	113
Cc1sc(-n2c(C)cc(/C=C3\SC(=S)NC3=O)c2C)c(C#N)c1C
    101	-20	-2.7	i	0.88	·	·
N#Cc1ccccc1Cn1c(=O)n(C2CCCC2)c(=O)c2ccccc21
    104	2	0.7	i	0.97	-16	128
S=C1NC(c2ccccc2)=NCN1c1ccccc1
    107	3	-0.2	i	0.84	37	145
N#CC1=C2SCN(Cc3ccccc3)CN2C(=O)CC1c1ccc2c(c1)OCO2 (configuration not stated)
    77	-2	-2.7	i	1.1	·	·
N#Cc1c(NC(=O)c2ccncc2)sc2c1CCC2
    102	-2	-3.3	i	1.3	56	94
COc1ccc(OC)c(S(=O)(=O)NC2CCCCC2)c1
    47	-2	-1.7	i	1	-18	100
Cc1cc(C)c(S(=O)(=O)/N=C2/C=C(SCC(=O)O)C(=O)c3ccccc32)cc1C
    70	-7	·	i	1	·	·
CN(C(=O)/C=C/c1ccc2c(c1)OCO2)c1ccccc1
    103	-6	·	i	0.91	-12	96
Cc1cc(C)nc(NC(=NCCc2c[nH]c3ccccc23)NC(=O)C(C)(C)C)n1
    99	·	·	i	1.1	·	·
CC(C)(C)NC(=S)NCCc1ccccc1
    98	3	-0.5	i	1	·	·
CCOC(=O)c1sc(NC(=O)Cn2nnc3sc4c(c3c2=O)CCC(C(C)(C)C)C4)nc1C (configuration not stated)
    104	0	0.3	i	0.97	10	166
COC(=O)C(Cc1cnc(Cl)s1)(C(=O)OC)c1ccccc1[N+](=O)[O-]
    60	4	0.8	i	1.2	8	98
COc1cc(C)c(CNc2cccc(C)c2)cc1C
    107	-5	-3.2	i	1	0	102
Cc1cc(C)n2nc(C(=O)Nc3nccs3)nc2n1
    100	-3	-3.5	i	0.95	0	100
Cc1ccc(CNc2ccc(CNc3ncn[nH]3)cc2)cc1
    101	-2	-1.0	i	1.1	30	87
O=C(O)CCCC(=O)Nc1cccc(C(=O)Nc2ccccc2C(=O)O)c1
    87	1	·	i	1.1	·	·
COc1ccc(S(=O)(=O)N2CCOCC2)cc1NC(=O)CN1CCCCCC1
    104	-8	·	i	0.93	-25	105
O=C1/C(=C\c2ccc(O)c(O)c2)N=C2CCCCCN12
    84	·	·	i	1	·	·

Next section:
The line under a structure holds: RGS16-Gao	PKD1 inh	GALR2 agonist	HSV augment	HSV augment primary fold	INS promoter inh	INS promoter inh cell count
Cc1nnc(NC(=O)c2cccc(F)c2)s1
    85	2	-1.9	·	·	-3	88
CCOC(=O)n1c(=O)n(C)c2ccc(Br)cc21
    107	-4	·	i	1	31	72
C/C(NCCCn1ccnc1)=C(\C#N)C(N)=O
    104	-10	-2.6	i	1.1	-11	151
Cc1ccc(N)c2c1OCCC2=O
    106	-5	-0.6	i	0.9	-31	161
Cc1cc(C)cc(CC2CC(=O)N(c3nc(C)cc(C)n3)C2=O)c1 (configuration not stated)
    104	0	-0.3	i	0.93	44	146
